CDC25B-CDK2 inh: primary biochemical HTRF screen for blockers of M-phase inducer phosphatase 2 binding to CDK2/cyclin A; HTRF CDC25B-CDK2/CyclinA binding, anti-His/anti-Flag; stronger effect = higher value; P30305+P24941; actives 0.72% (n = 94,000); z-score (test concentration not listed);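 further: score is relative to mean and SD of negative controls; strong numbers were not always called active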
HIV TAR-Tat: TAR RNA-Tat peptide displacers, HIV-1, primary screen, biochemical, FRET, FAM/TAMRA-labeled Tat; HIV-1 TAR RNA, Tat peptide displacement FRET; stronger effect = higher value; z-score (test concentration not listed); actives 0.6% (n = 100,000);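 further: score is relative to mean and SD of negative controls; some compounds called inactive have numbers as strong as hits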
* = called active by the depositor; · = no result given.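 How the source made its calls: active means z-score from 3 up in half or more of its runs; inactive means the rest.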 No enrichment for hits. About 0.87% of those tested had a hit in this group.

item	compound	CDC25B-CDK2 inh	HIV TAR-Tat
1	CSc1nc(C)cc(Oc2ccc(OCC(N)=O)nn2)n1	-1.1	-1.3
2	CCc1nn(CC(=O)Nc2ccc(N(CC)CC)cc2C)c(=O)c2cc3sccc3n12	-1.2	-0.44
3	COc1ccc(-c2ccc(NS(=O)(=O)c3ccc(C)c(C)c3)cc2)nn1	·	0.95
4	COc1ccc(OC)c(CN2C(=O)c3nccnc3C2=O)c1	-2.5	1.6
5	CCCCN(CC)CCNC(=O)C(C)N1C(=O)CCn2nc(C)cc21 (stereo not drawn)	·	1.1
6	O=C(C1CCCN(S(=O)(=O)c2cccc3cccnc23)C1)N1CCc2ccccc21 (stereo not drawn)	-1.2	-0.46
7	O=C(CCC(=O)N1CCOc2ccccc21)NCCCN1CCc2ccccc2C1	-0.29	-0.38
8	O=C(CN1C(=O)COc2ccccc21)N1CCOCC1	0.55	·
9	CCN(CC)S(=O)(=O)c1cc(-c2ccc(=O)[nH]n2)ccc1C	-0.12	0.37
10	N#C/C(N=Cc1cccs1)=C(\C#N)NCc1ccccc1Sc1ccc(Cl)cc1	-0.85	·
11	COc1ccc(-c2nc(-c3ccncc3)[nH]c(=O)n2)cc1	-1.7	·
12	O=C(CSc1nc2ccccc2o1)Nc1ccc(F)c(F)c1	-0.42	·
13	CC1=C(C(=O)OCC(F)(F)F)C(c2ccc(Br)cc2)NC(=O)N1 (stereo not drawn)	2.6	·
14	CCN1CCN(CCNC(=O)NC2COc3ccccc3C2)CC1 (stereo not drawn)	·	1.3
15	Nc1nc(N2CCOCC2)nc(Nc2cccc(F)c2)c1[N+](=O)[O-]	·	0.66
16	O=S(=O)(Cc1ccc2nonc2c1)c1cccs1	-1.1	·
17	CCOc1ccccc1OCc1nn2cnnc2s1	-0.91	-0.97
18	O=C(Nc1nc2c(s1)CCCCC2)Nc1ccc(Br)cc1F	·	0.45
19	O=C(CCS(=O)(=O)c1cccc2nsnc12)Nc1cccc(Cl)c1	-0.03	-0.64
20	CCOCCCNC(=O)Nc1nnc(N(C)C2CCCCC2)s1	-1.4	-0.21
21	O=[N+]([O-])c1cn[nH]c1/C=N/O	-1.4	·
22	O=C1c2ccccc2C(=O)N1CCCN1CCN(CCCN2C(=O)c3ccccc3C2=O)CC1	-1.6	·
23	CCCS(=O)(=O)c1nc(S(=O)(=O)c2ccc(C)cc2)c(N2CCN(C)CC2)s1	-0.49	-0.48
24	Cc1[nH]c(C)c(S(=O)(=O)NCCC2=CCCCC2)c1C(=O)N1CCCCC1	·	-0.06
25	Cc1ccc(N2C(=O)SC(Nc3ccc(C(=O)O)cc3)C2=O)cc1C (stereo not drawn)	0.78	0.11
26	O=c1c2cccnc2n(Cc2ccccc2Cl)c(=O)n1Cc1ccc2c(c1)OCO2	-0.81	0.8
27	CCn1c(N)c(C(=O)NC(C)c2ccccc2)sc1=S (stereo not drawn)	-0.43	-0.12
28	CC(c1nc2ccccc2[nH]1)N1CCCCC1 (stereo not drawn)	-1.5	2
29	CC(=O)Nc1cc(-c2nn3c(C)nnc3s2)ccc1C	-0.61	1.9
30	CCCCCn1c(N2CCN(c3ccccc3)CC2)nc2c1c(=O)[nH]c(=O)n2C	-0.5	·
31	Cc1ccc(Cl)cc1-n1ncc2c(NC3CCCCC3)ncnc21	·	0.48
32	CC1CCCC(N(Cc2ccco2)C(=O)Cn2ncc3c([nH]c4ccccc43)c2=O)C1C (stereo not drawn)	·	1.5
33	O=C(OCc1cc(=O)n2nc(C3CC3)sc2n1)c1ccccc1F	·	1.1
34	Cc1ccc(COc2ncnc3cc(Cl)ccc23)cc1	1.1	·
35	CC(C)c1cc(C(=O)N2CCCC2c2ccc(Cl)cc2)no1 (stereo not drawn)	-0.21	0.96
36	COc1ccccc1OCCSc1nc2ccccc2[nH]1	0.49	0.24
37	COC(=O)c1sc2ccccc2c1OC(=O)c1c(-c2c(Cl)cccc2Cl)noc1C	2.8	·
38	COc1cccc(-c2nn3c(C(F)(F)F)nnc3s2)c1	-1.2	0.2
39	C#CC(C)(CC)NC(=O)CN1c2cccc3cccc(c23)S1(=O)=O (stereo not drawn)	-0.54	·
40	CCc1nnc(SCC(=O)Nc2cc(C)cc(C)c2)c2cc3sccc3n12	·	2.2
41	Cc1nc(-c2nc(-c3c(C(=O)NNC(=O)Nc4cccc(Cl)c4)noc3C)cs2)cs1	-2.7	·
42	Cc1c2ccccc2nc2c(F)c(F)c(F)c(F)c12	-3.9	·
43	CC(C)(C)c1ccc(Cn2cnc3ccccc32)cc1	-0.07	0.94
44	Cc1ccc(Cn2c(=O)n(Cc3cccs3)c(=O)c3cccnc32)cc1	-0.63	0.82
45	CNC(=O)c1ccccc1I	-0.88	·
46	CC1=C(c2ccccc2)S(=O)(=O)NC1=NC(C)c1ccc2c(c1)OCCO2 (stereo not drawn)	0.13	-0.19
47	CC(=O)N1N=C(c2cnccn2)OC12CCC(C(C)(C)C)CC2 (stereo not drawn)	-0.85	·
48	CC1(C)C(=O)NN(c2ccccc2Cl)C1=O	-0.68	1.6
49	CCCCC(=O)OCc1cc(=O)n2nc(C)sc2n1	·	0.21
50	COC(=O)c1sc(OC)cc1OC(=O)c1ccccc1C	-0.82	·
51	Cc1ccccc1NC(c1nnc(-c2ccccc2)o1)c1ccccc1F (stereo not drawn)	·	1.7
52	O=C(CN1C(=O)c2cccnc2Oc2ccccc21)N1CCCC1	·	0.91
53	CCC(C)NC(=O)c1c(O)c2c([nH]c1=O)CCCC2 (stereo not drawn)	·	2.3
54	Cc1nc(SCC(=O)c2ccccc2)c2sc3nc4c(cc3c2n1)COC(C)(C)C4	·	0.32
55	O=C(NCc1ccc2c(c1)OCO2)C1CCCN(S(=O)(=O)N2CCCCC2)C1 (stereo not drawn)	·	2.1
56	COc1cc(C2=N/C(=C/c3ccccc3OC(=O)/C=C/c3ccccc3)C(=O)O2)cc(OC)c1OC	-2	·
57	CCOC(=O)Cn1c(CN2CCC(C)CC2)nc2c1c(=O)n(C)c(=O)n2C	1.3	0.26
58	CC(=O)Nc1ccc(N2CCN(c3ccc(C(F)(F)F)cn3)CC2)nc1	-1.4	·
59	CCOC(=O)c1c(NC(=O)Oc2ccccc2)sc2c1CCC(C)C2 (stereo not drawn)	-1.9	0.78
60	Cc1c(C)c2ccc(OCC(=O)O)c(C)c2oc1=O	-0.96	·

4 compounds out of the list, arranged by number of heavy atoms, low to high.
item	compound	CDC25B-CDK2 inh	HIV TAR-Tat
45	CNC(=O)c1ccccc1I	-0.88	·
60	Cc1c(C)c2ccc(OCC(=O)O)c(C)c2oc1=O	-0.96	·
34	Cc1ccc(COc2ncnc3cc(Cl)ccc23)cc1	1.1	·
35	CC(C)c1cc(C(=O)N2CCCC2c2ccc(Cl)cc2)no1 (stereo not drawn)	-0.21	0.96

(further entries)
item	compound	CDC25B-CDK2 inh	HIV TAR-Tat
61	Nc1n[nH]c(C2CC2)c1N=Nc1ccc(Cl)c(Cl)c1	-0.72	·
62	O=c1[nH]c(-c2cccs2)nc2c1Cc1ccccc1O2	-0.44	-0.34
63	CC1CCCCN1c1nnc(NC(=O)Nc2ccc(F)c(Cl)c2)s1 (stereo not drawn)	-0.8	-0.06
64	CCOC(=O)c1cc(-c2ccc(S(=O)(=O)N(CC)CC)s2)on1	·	0.01
65	O=C(NCc1ccc(Cl)cc1)C1CCC(CNc2c(N3CCCC3)c(=O)c2=O)CC1 (stereo not drawn)	-1	1.2
66	Cc1ccc(S(=O)(=O)ONCCN)cc1	-2.9	·
67	COc1ccc(N2C(=O)C3N=NN(CC(=O)Nc4ccc(Cl)cc4)C3C2=O)cc1OC (stereo not drawn)	·	-0.98
68	CS(=O)(=O)c1sc2nc(-c3cccs3)cc(-c3ccccc3)c2c1N	-0.43	-10
69	CCCNc1ncnc2onc(-c3ccccc3C)c12	·	0.79
70	C=CCN1C(C(=O)c2ccccc2)=C(NC(=O)COc2ccccc2)c2ccccc2S1(=O)=O	-1.2	2.1
71	CCCS(=O)(=O)N1CCCc2ccc(NS(=O)(=O)c3ccc4c(c3)OCCO4)cc21	·	0.87
72	O=C(CNC(=O)Cn1cnc2ccccc2c1=O)NCCN1CCOCC1	·	-1
73	CN(C)c1ccc(C(=O)NNC(=O)CCc2nc(-c3ccc(Cl)cc3)no2)cc1	-0.9	·
74	COCc1cc(=O)[nH]c(Nc2nc(C)c3cc(C)cc(C)c3n2)n1	-3.8	·
75	COc1ccc(C2CC(=O)c3cn4nc(C(F)(F)F)nc4nc3C2)cc1 (stereo not drawn)	-3.2	-7.1
76	Cc1cc(-c2nc(C)c(C(=O)NN)s2)no1	-0.12	·
77	O=c1n(-c2ccccc2)c(=O)n2n1C1CCC2C1	-0.43	·
78	CCc1ccc(C(=O)CC2(O)C(=O)N(C)c3ccc(Br)cc32)cc1 (stereo not drawn)	0.02	·
79	CCn1c(C(=O)NC2CCC(C)CC2)cc2oc3ccccc3c21 (stereo not drawn)	-1.8	2.5
80	CC(=O)N1CC(C)Oc2ccc(S(=O)(=O)N3CCC(N4CCCCC4)CC3)cc21 (stereo not drawn)	·	0.2
81	Cc1ccc(C2=NN(C(=O)c3ccc(C)o3)C(O)(C(F)(F)F)C2)cc1 (stereo not drawn)	-1.5	·
82	CSc1sc(C(=O)N2CCc3ccccc32)cc1S(=O)(=O)C(C)C	-1.4	·
83	O=C1c2oc3ccc(F)cc3c(=O)c2C(c2ccc(F)cc2)N1Cc1ccc2c(c1)OCO2 (stereo not drawn)	-1.1	-0.91
84	COc1ccccc1N1CCN(S(=O)(=O)c2ccc(F)cc2)CC1	0.07	·
85	Fc1ccccc1-c1nc(-c2cccnc2)no1	-1.3	0.48
86	Cc1nc2c(s1)CCc1oc(C(=O)NCc3ccc(Br)cc3)c(C)c1-2	·	2.4
87	CN(C1CCCCC1)S(=O)(=O)c1ccc2c(c1)c(=O)c(C(=O)NC1CCCCCC1)cn2C	-1.2	·
88	COc1cc(OC)c(NC(=O)C2=C(C)C(=O)OC23CCN(C(C)C)CC3)cc1Cl	·	0.76
89	Cc1cc(C2CCCN2C(=O)c2cc(-c3ccc(F)cc3)no2)on1 (stereo not drawn)	·	2.3
90	Cc1ccc(CN2N=NC3C(=O)N(c4ccc(C)c(C)c4)C(=O)C32)cc1 (stereo not drawn)	-1.1	0
91	COc1ccccc1-n1cc(-c2ccc(C)cc2)[nH]c1=S	-1.6	·
92	O=C(Nc1ccc(F)cc1)C1=Cc2cc(Br)ccc2OC1	·	-0.22
93	CC1(C)CCc2cc(C3=C(O)/C(=C/c4ccc5c(c4)C[C@H](C(C)(C)O)O5)OC3=O)c(O)cc2O1	·	2.8
94	Cc1ccc(S(=O)(=O)N2CCCC(c3nc(-c4ccc(OC(C)C)cc4)no3)C2)cc1 (stereo not drawn)	·	2.5
95	CCOC(=O)c1c(NC(=O)CN2CCCCC2)sc2c1CCCC2=O	-0.7	1.9
96	O=S1(=O)C[C@H](NCc2ccccc2F)[C@@H](S(=O)(=O)c2ccc(F)cc2)C1	-1.9	-0.26
97	O=C(NCc1ccccc1)c1cccc(NC2=NC3CS(=O)(=O)CC3S2)c1 (stereo not drawn)	-0.22	2.9
98	O=C(COC(=O)c1ccc(C(O)c2ccccc2)cc1)c1ccccc1 (stereo not drawn)	-1.7	1.7
99	COc1ccc(S(=O)(=O)N2CCCC(C(=O)O)C2)cc1Cl (stereo not drawn)	-1.2	-1.5
100	CN1OC(COS(=O)(=O)c2ccc([N+](=O)[O-])cc2)CC12C1CC3CC(C1)CC2C3 (stereo not drawn)	-1.6	·
101	CCCCC(Sc1nc2ccccc2c2nc(C)nn12)C(=O)OCC (stereo not drawn)	·	1.2
102	COC(=O)C1C(=O)C2=C(CC1C)NC(C)=C(C(=O)OCc1ccccc1)C2c1ccc2c(c1)OCO2 (stereo not drawn)	-0.34	1.2
103	Cc1ccccc1-c1noc(CSc2nnc(C)n2-c2ccc(F)cc2)n1	-0.51	0.27
104	CN(C)c1ccc(-n2cc3c(c2-c2cccc(Br)c2)c(=O)n(C)c(=O)n3C)cc1	-1	0.52
105	O=C1c2cccc3c(Sc4ccccc4)ccc(c23)C(=O)N1NCCO	0.09	·
106	COc1ccc(C(=O)Cn2c3ccccc3n3nc(-c4ccccc4)nc23)cc1OC	-1.3	1
107	COc1ccc(-n2c(-c3ccc(Br)cc3)n[nH]c2=S)cc1	-2.2	·
108	Cc1cccc(C2=C([N+](=O)[O-])Sc3ccccc3N2)c1	-1.1	-1.5

In the list so far, these contain bromine.
item	compound	CDC25B-CDK2 inh	HIV TAR-Tat
13	CC1=C(C(=O)OCC(F)(F)F)C(c2ccc(Br)cc2)NC(=O)N1 (stereo not drawn)	2.6	·
18	O=C(Nc1nc2c(s1)CCCCC2)Nc1ccc(Br)cc1F	·	0.45
78	CCc1ccc(C(=O)CC2(O)C(=O)N(C)c3ccc(Br)cc32)cc1 (stereo not drawn)	0.02	·
86	Cc1nc2c(s1)CCc1oc(C(=O)NCc3ccc(Br)cc3)c(C)c1-2	·	2.4
92	O=C(Nc1ccc(F)cc1)C1=Cc2cc(Br)ccc2OC1	·	-0.22
104	CN(C)c1ccc(-n2cc3c(c2-c2cccc(Br)c2)c(=O)n(C)c(=O)n3C)cc1	-1	0.52
107	COc1ccc(-n2c(-c3ccc(Br)cc3)n[nH]c2=S)cc1	-2.2	·
